FGF22 binding: shifts melting point of recombinant human FGF22; recombinant FGF22 thermal shift, SYPRO orange fluorescence; percent of sucrose octasulfate shift, DMSO zero; AID 651658; 340,000 compounds, 1.5% hits; calls only at 9.99 µM;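 active = melting point raised past a set limit in the mean and every replicate; inconclusive = no clear call; three in four hits are not shown here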
Target sequence (Q9HCT0 whole entry, looked up): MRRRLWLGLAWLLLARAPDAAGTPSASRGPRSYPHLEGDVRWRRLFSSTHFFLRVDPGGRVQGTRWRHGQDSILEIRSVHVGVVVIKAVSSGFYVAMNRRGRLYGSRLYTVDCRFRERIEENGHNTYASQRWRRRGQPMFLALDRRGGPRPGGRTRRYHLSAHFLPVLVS
RanGTP-Impb inh: inhibitors of RanGTP-importin-beta interaction, primary screen, biochemical, FRET, CFP-Ran, YFP-importin-beta, homogeneous. cell-free CFP-Ran/YFP-importin-beta FRET ratio. inhibition, % (test concentration not listed). 300,000 compounds, 1.1% hits. AID 2216;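 active = most replicates above 15%; inconclusive = exactly half above 15%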;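 also: 0% = DMSO wells and 100% = Ran loaded with GDP instead of GTP; wells of about 40 µL received 100 nL stock; the first replicate is given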
Vif TR-FRET: inhibitors of Vif binding to APOBEC3G peptide, primary screen, biochemical, TR-FRET, GST-Vif 1-94, biotin-A3G peptide, dose response retest (AID 1117319); TR-FRET GST-Vif / biotin-A3G peptide binding; higher % means a stronger effect; test concentration not given here; strong numbers were not always called active; one-dose inhibition, %; IC50 in µM for titrated hits; 260,000 compounds, 0.57% hits;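 active = above the screen mean plus three standard deviations and confirmed in dose response; inconclusive = results disagree or hit not tested in dose response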;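 also: Vif residues 1-94 fused to GST binding biotinylated APOBEC3G peptide 110-148; 0% = full assay without inhibitor and 100% = GST in place of GST-Vif; retest series ran down from 100 µM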
AF4-AF9 inh: blocks AF4 peptide binding to human AF9 | P42568 | AlphaScreen, biotin-AF4 peptide binding to FLAG-AF9 | inhibition, % at 10 µM | 350,000 compounds, 0.47% hits | AID 651704;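 active = every replicate reaching a set inhibition limit, whatever the replicate mean, cut at about 25% in these data; inconclusive = mean inhibition reaches that limit but some replicates miss it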;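 also: 0% = plate neutral control median and 100% = total signal loss; the record names both 10 and 1 µM as test concentration; the first replicate is given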
E coli growth: blocks Escherichia coli growth; OD600, 23 h; active compounds read low; OD600 absorbance (test concentration not listed); 330,000 compounds, 0.21% hits; AID 1053175;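 active = OD600 absorbance below the run mean of sample wells minus 3.6 SD, in any replicate, cut at about 0.56 in these data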;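 also: stock transfer was 300 nL into about 60 µL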
UCH37 DUB inh: blocks the human deubiquitinase UCH37; purified proteasome/UCH37, Ub-AMC cleavage fluorescence; inhibition, % (concentration not given with the values); 330,000 compounds, 0.33% hits; AID 588478;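 active = mean of two replicates above 20%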;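 also: 0% = compound-free wells with enzyme and 100% = wells lacking proteasome; stock transfer was 100 nL into about 20 µL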
Target sequence (Q9Y5K5 whole entry, looked up): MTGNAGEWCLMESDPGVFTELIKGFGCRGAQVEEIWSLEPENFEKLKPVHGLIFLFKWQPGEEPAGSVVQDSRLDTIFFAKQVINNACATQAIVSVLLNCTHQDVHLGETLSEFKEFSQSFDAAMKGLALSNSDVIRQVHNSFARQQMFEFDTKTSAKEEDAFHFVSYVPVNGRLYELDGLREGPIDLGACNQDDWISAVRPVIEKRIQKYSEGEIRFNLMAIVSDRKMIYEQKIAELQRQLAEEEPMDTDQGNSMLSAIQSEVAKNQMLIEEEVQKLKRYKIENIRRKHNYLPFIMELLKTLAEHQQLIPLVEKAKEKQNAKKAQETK
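assay system = human UCH37 enzyme supplied as purified proteasome complex | amount = proteasome at 0.15 nM in the dispensed enzyme solution | schedule = 30 min compound-proteasome preincubation then 25 min substrate reaction, room temperature | measured by = fluorescence, ex 355 nm, em 460 nm | benchmarks = no-proteasome wells (full inhibition) and compound-free wells (no inhibition)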
HNF4A DNA FP: change in binding of human HNF4 alpha to DNA; HNF4a-FITC DNA binding, fluorescence polarization, 1 h; activity change, % at 10 µM; 360,000 compounds, 0.3% hits; in the data active = activity change above about 30%, passing the limit was not always enough;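 also: controls were the assay level and a saturating level of protein; the project sought stronger binding though the title names inhibitors; some compounds called inactive have numbers as strong as hits; positive values seem to mean higher polarization but the record does not say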
Target sequence (P41235 whole entry, looked up): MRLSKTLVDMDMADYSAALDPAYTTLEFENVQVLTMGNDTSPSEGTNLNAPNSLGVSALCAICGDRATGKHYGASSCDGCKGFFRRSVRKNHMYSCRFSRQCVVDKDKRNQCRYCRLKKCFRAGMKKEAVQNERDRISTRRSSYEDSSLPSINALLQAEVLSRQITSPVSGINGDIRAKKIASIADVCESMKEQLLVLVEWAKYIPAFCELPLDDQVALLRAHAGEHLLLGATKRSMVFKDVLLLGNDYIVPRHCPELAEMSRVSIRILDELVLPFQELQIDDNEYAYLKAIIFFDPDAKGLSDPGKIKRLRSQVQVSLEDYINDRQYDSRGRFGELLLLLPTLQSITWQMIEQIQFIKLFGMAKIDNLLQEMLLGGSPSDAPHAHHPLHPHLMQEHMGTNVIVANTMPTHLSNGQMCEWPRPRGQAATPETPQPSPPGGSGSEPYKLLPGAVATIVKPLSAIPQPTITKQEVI
* hit, by the source's call; i = inactive; ? = inconclusive; . = not tested or not shown; & = joins results of further samples. The list is partial; count on the stated rates, not on these rows.

FGF22 binding	RanGTP-Impb inh	Vif TR-FRET	AF4-AF9 inh	E coli growth	UCH37 DUB inh	HNF4A DNA FP	compound
i	4.4	.	10	0.72	0.9	7.1	COc1ccc(-c2cc(C)no2)cc1S(=O)(=O)NCC1CCN(Cc2cc(C)ccc2C)CC1
i	0.6	-4%	-8.5	0.73	-0.5	-3.1	CCN=C1S/C(=C\c2cc(Br)ccc2OCC(=O)OCC)C(=O)N1CC
i	.	.	-1.3	0.72	2.2	-1.5	Cc1cccc(C)c1-n1nnnc1SCC(=O)c1c(N)n(C2CC2)c(=O)[nH]c1=O
.	-3.7	.	.	0.69	8.7	2.4	COc1ccc(C2=NCCn3cccc32)c(OC)c1
i	2.4	.	-0.4	0.67	5.0	4.3	Cc1ccc(O)c(CP(=O)(c2ccccc2)c2ccccc2)c1
.	.	-5%	.	0.72	-7.8	5.6	O=C(COC(=O)c1n[nH]c2ccccc12)NC(=O)NC1CCCC1
i	.	-1%	?	0.69	2.1	0.7	CCOc1ccc(S(=O)(=O)NCCC(=O)NCC(c2ccc(OC)cc2)N2CCCC2)cc1 (stereo unspecified)
i	-3.5	.	-1.8	0.67	0.3	6.3	Cc1ccccc1N1CCN(S(=O)(=O)c2ccc3ccccc3c2)CC1
.	-2.3	.	.	0.69	1.2	-1.6	O=C(NCc1ccco1)/C(=C\c1ccco1)NC(=O)c1ccc(Br)o1
.	-3.4	27%	.	0.72	2.1	-0.1	CC1=CCC2C(=O)N(c3nc(C)cc(C)n3)C(=O)C2C1 (stereo unspecified)
i	.	-6%	5.1	.	.	-2.1	O=C(CCCC(=O)NN=Cc1cccc(O)c1)NN=Cc1cccc(O)c1
i	6.1	-2%	8.7	0.54	-97	1.5	C=CCNc1ncnc2c1[nH]c1ccc(C)cc12
i	2.9	.	-0.8	0.73	-1.4	0.3	O=C(C1CCCN(C2CC(=O)N(c3ccc(Cl)cc3)C2=O)C1)N1CCCC1 (stereo unspecified)
i	0.8	-1%	8.6	0.69	3.5	1.1	Cc1cccc2sc(NC(=O)Cn3cccc3)nc12
.	-1.1	1%	.	0.7	2.6	-2.5	CCOc1ccc2nc(NS(C)(=O)=O)sc2c1
.	-1.7	63%	.	.	.	0.0	O=[N+]([O-])c1cccc(/C(=N/N=C/c2ccccc2Br)C23CN4CN(CN(C4)C2)C3)c1
i	-1.2	-11%	-0.1	.	.	2.2	Nc1nnc(CC(=O)N/N=C/c2ccccc2OCc2ccc(F)cc2)s1
i	-6.6	.	0.3	0.7	7.8	5.2	C#Cc1ccc(CN2CCC(Oc3cc(C(=O)NC4CC4)ccc3OC)CC2)cc1
i	3.0	30%	-1.3	0.67	2.2	3.0	COc1ccccc1NC(=O)CN(Cc1ccco1)C(=O)c1cncc(Br)c1
.	1.4	-5%	.	0.7	-112	0.4	Cc1cc2[nH]c(=O)c(=O)[nH]c2cc1S(=O)(=O)NCc1ccc(Cl)cc1
i	.	.	0.2	.	.	5.2	COC(=O)C[C@@H]1OC[C@H](CO)N1S(=O)(=O)c1ccc(C)cc1
i	0.9	-9%	19	0.7	4.5	-5.1	CN(C)CCCN(C(=O)c1ccc(S(=O)(=O)N2CCCCCC2)cc1)c1nc2cc3c(cc2s1)OCCO3
i	4.6	-4%	-9.5	0.67	-44	-2.4	CC(C)(C)c1cc(N2CCOCC2)n2ncc(-c3ccccc3)c2n1
i	1.0	?	-3.5	0.64	4.3	-0.6	COc1ccc(C(=O)O)cc1S(=O)(=O)Nc1ccc(C)cc1
i	4.1	2%	2.3	0.67	2.2	-4.2	COc1ccc(CN(C)C(=O)Cn2ccsc2=N)cc1OC
i	.	-8%	0.1	0.67	-87	4.2	COc1ccc(OC)c(/C=C/C(=O)OCC(=O)NCc2ccccc2)c1
i	5.1	.	-4.4	0.63	2.1	-0.1	c1ccc(-c2csc(Nc3ccccn3)n2)cc1
i	2.3	9%	0.2	0.68	-1.6	-0.3	CN1CCN(NC(=O)c2cc(Br)ccc2Cl)CC1
i	0.1	.	6.8	0.69	3.2	0.1	O=C(c1ccccc1)N1N=C(c2ccco2)CC1c1cccs1 (stereo unspecified)
.	2.7	11%	.	0.8	1.7	2.0	C/[N+]([O-])=C1\Cc2ccccc2C1=O
i	0.0	5%	-0.8	0.64	-0.2	1.1	Cc1cc(C)cc(NC(=O)CN(c2ccc(F)cc2)S(C)(=O)=O)c1
.	1.9	-5%	.	0.73	2.5	-0.6	COc1cc(C(=O)N[C@H](C(=O)NC2CCCCCC2)C(C)C)cc(OC)c1OC
.	-0.2	-2%	.	0.68	5.9	-0.4	O=C(Cc1ccccc1)NC1CCS(=O)(=O)C1 (stereo unspecified)
i	?	8%	-1.2	0.68	-1.2	-1.1	O=C(NCc1ccco1)c1ccc(Cl)nc1
.	-2.4	-1%	.	0.65	0.6	4.1	O=C(NCc1cccnc1)c1ccc(NC(=O)c2ccco2)cc1
i	-2.5	4%	?	0.66	3.4	6.0	CCS(=O)(=O)N1CCN(c2ccnc3cc(Cl)ccc23)CC1
i	5.9	7%	0.5	0.65	1.8	2.9	O=C(NCC(c1ccco1)N1CCCCC1)c1cccc(S(=O)(=O)Nc2ccccc2Cl)c1 (stereo unspecified)
.	11	10%	0.4	0.69	3.6	-2.2	O=C(/C=C/c1cccc([N+](=O)[O-])c1)NCc1ccccc1
i	0.2	-5%	-2.1	0.7	7.6	1.2	O=C(O)c1cc(=O)n(Cc2ccccc2)c(=O)[nH]1
i	0.9	-7%	7.4	0.63	0.7	1.7	Cc1cccnc1NC(=O)c1ccc2c(c1)OCCO2
.	?	-34%	.	0.73	5.3	-3.5	COc1cc(-c2nc(Cc3c(F)cccc3Cl)no2)cc(OC)c1OC
i	.	1%	-2.4	0.69	1.0	-4.4	CCOC(=O)c1cc(C(=O)NNC(=O)c2cccc([N+](=O)[O-])c2)c(C)nc1C
i	10	-9%	4.5	.	7.7	-1.3	O=C1CN(C(=O)/C=C/c2cccc(Cl)c2)c2ccccc2N1
i	-0.5	.	0.8	0.7	-7.0	1.0	O=C(Nc1ccc2ccccc2c1)/C(=C/c1cccc(Br)c1)NC(=O)c1ccco1
i	-0.5	-10%	-4.0	0.71	-25	5.5	COCCn1c(C)cc(/C=C2/NC(=O)N(c3ccc(Cl)cc3)C2=O)c1C
i	.	0%	-0.6	.	.	3.9	Cc1ccc(NC(=O)c2ccc3c(c2)CCN3S(C)(=O)=O)cc1
.	5.3	8%	.	0.72	0.9	-0.5	CC(C)CCn1c(Oc2ccc(Cl)cc2)nc2c1c(=O)n(C)c(=O)n2C
i	.	-7%	2.4	.	.	-4.1	CCCCCCN1C[C@@H](n2cc(-c3ccc(F)cc3)nn2)[C@H](O)C[C@@H]1c1ccccc1
i	-3.3	.	1.8	0.68	-1.8	1.8	CCN1CCN(C/C(C)=C/c2ccccc2)CC1
.	-0.7	0%	.	0.77	5.3	2.0	COC(=O)c1ccccc1NC(=O)N1CSC[C@H]1C(=O)OC
i	0.3	25%	-1.1	0.7	2.1	-3.0	O=C(NCC1CCCO1)C1CC1(c1ccccc1)c1ccccc1 (stereo unspecified)
i	.	.	-1.2	.	.	-4.4	C#CCNC(=O)C[C@@H]1C[C@@]2(C(=O)OCC)CCCC=C2N(Cc2cccc3ccccc23)C1=O
.	-0.4	7%	.	0.71	0.7	-1.2	CCCCNC(=O)C1CCN(Cc2ccccn2)CC1
i	5.6	-11%	-0.9	0.7	5.4	-2.0	CC(=O)Nc1cccc2c1C(=O)N(c1ccccc1C)C2=O
.	-2.0	1%	.	.	1.0	1.1	CCn1c(SCC(=O)NC(C)C)nnc1-c1cccs1
i	3.0	0%	-1.0	0.71	1.1	1.2	CCN(C(=O)CN1CCOCC1)c1c(N)n(Cc2ccccc2)c(=O)[nH]c1=O

Remaining list, next part:
FGF22 binding	RanGTP-Impb inh	Vif TR-FRET	AF4-AF9 inh	E coli growth	UCH37 DUB inh	HNF4A DNA FP	compound
.	1.8	6%	.	0.63	7.6	-4.2	Cc1c(Cl)cccc1N=Cc1ccc([N+](=O)[O-])s1
i	-3.2	-8%	0.3	.	.	3.5	CSc1ccc(/C=N/NC(=O)C[n+]2ccccc2)cc1
.	-1.9	-2%	.	0.72	0.4	-0.5	COc1ccccc1NC(=O)CSc1nnc(CC(=O)Nc2cccc(C(F)(F)F)c2)n1C
i	-2.7	-12%	-2.9	0.65	-0.1	1.2	CCOC(=O)c1ccc(NC(=O)c2cc(=O)[nH]c3ccccc23)cc1
i	0.7	.	-3.8	0.66	-21	-0.2	CN(C)c1cccc(C(=O)NCCCn2ccc3ccccc32)c1
.	?	1%	.	0.68	2.5	-1.1	COc1ccc(OC(C)C(=O)NC2CC(C)(C)NC(C)(C)C2)cc1 (stereo unspecified)
i	-3.5	.	-6.2	0.72	3.1	-1.3	O=C(NCc1ccccc1Cl)C1CCCN1C(=O)NC1CCCCC1 (stereo unspecified)
i	-3.8	-3%	-1.1	0.78	3.8	-1.4	Cc1nc2sc(C(c3cccs3)N3CCN(C(=O)c4ccco4)CC3)c(O)n2n1 (stereo unspecified)

Taken from the results shown, 3 compounds:
FGF22 binding	RanGTP-Impb inh	Vif TR-FRET	AF4-AF9 inh	E coli growth	UCH37 DUB inh	HNF4A DNA FP	compound
.	?	1%	.	0.68	2.5	-1.1	COc1ccc(OC(C)C(=O)NC2CC(C)(C)NC(C)(C)C2)cc1 (stereo unspecified)
i	-3.5	.	-6.2	0.72	3.1	-1.3	O=C(NCc1ccccc1Cl)C1CCCN1C(=O)NC1CCCCC1 (stereo unspecified)
i	-3.8	-3%	-1.1	0.78	3.8	-1.4	Cc1nc2sc(C(c3cccs3)N3CCN(C(=O)c4ccco4)CC3)c(O)n2n1 (stereo unspecified)

Next section
FGF22 binding	RanGTP-Impb inh	Vif TR-FRET	AF4-AF9 inh	E coli growth	UCH37 DUB inh	HNF4A DNA FP	compound
i	-0.3	0%	-1.0	0.72	3.1	0.7	COC(=O)CCN1CCC(c2cc(-c3cccc(C(F)(F)F)c3)n[nH]2)CC1
.	5.6	?	.	0.65	4.2	3.7	COc1ccccc1N1Cc2ccccc2C1
.	-3.2	1%	.	0.69	1.9	2.8	Cc1c(NC(=O)c2ccccc2)cccc1[N+](=O)[O-]
i	.	-1%	1.8	0.68	-0.4	6.5	O=C(Nc1cccc(S(=O)(=O)N2CCCCC2)c1)c1cc(=O)[nH]c2ccccc12
i	.	67%	0.5	0.66	5.9	-0.9	Cc1ccccc1C(=O)NCC(=O)OC(C)C(=O)NC(C)CCc1ccccc1 (stereo unspecified)
.	-3.7	25%	.	0.68	1.4	3.4	O=C(COC(=O)c1cccc(S(=O)(=O)N2CCOCC2)c1)Nc1ncc(C(F)(F)F)cc1Cl
i	8.5	0%&-5%	6.1	0.73&0.68	-0.2&4.1	-2.8&1.4	Cc1csc(=Nc2ccc(S(=O)(=O)N3CCOCC3)cc2)n1Cc1ccco1
i	.	-3%	0.7	.	.	0.6	CCN(CC)C(=O)[C@H]1CC(CC(=O)NCc2ccc(OC)c(OC)c2)C(=O)N2CCc3c([nH]c4ccccc34)[C@]12C (stereo partly specified)
.	-7.4	.	.	0.67	0.4	-3.5	CC[N+](C)(CC)CC(O)COCC1COc2ccccc2O1 (stereo unspecified)
.	-1.9	4%	.	0.71	-1.0	0.4	Cn1c(SCC(=O)Nc2ccc3cn[nH]c3c2)nnc1-c1cccs1
i	2.4	5%	-1.1	0.67	-0.9	-1.6	CCN(CC)S(=O)(=O)c1ccc2c(c1)N(CC(=O)N1CCC(C(N)=O)CC1)C(=O)CO2
i	0.9	.	-0.8	0.71	0.5	1.5	COc1ccc(CCC(=O)OCc2csc(CC(=O)Nc3ccccc3C)n2)cc1
i	.	-7%	1.2	.	.	0.1	O=C(N/N=C/c1cc([N+](=O)[O-])cc([N+](=O)[O-])c1O)C(O)(c1ccccc1)c1ccccc1
i	.	-4%	0.9	0.74	5.9	1.8	CCOc1ccc(NC(=O)CN2C(=O)NC(CCc3ccccc3)C2=O)cc1OCC (stereo unspecified)
